GIV-Gai inh – inhibitors of GIV peptide binding to Galpha-i3, primary screen, biochemical, fluorescence polarization, FITC-GIV GBA peptide, rat Galphai3. 0.42% of 210,000 active. percent of control (FP), % (no concentration beside the values). Guanine nucleotide-binding protein G(i) subunit alpha-3 (Rattus norvegicus), P08753. 90 min; hits give low values; scaled: aluminum fluoride 0%, vehicle 100%;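 active means replicate mean at 85% of control or lower, very high polarization wells dropped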;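 further: wells of about 15 µL received 100 nL stock; the first replicate is given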
Target sequence (P08753 whole entry, looked up): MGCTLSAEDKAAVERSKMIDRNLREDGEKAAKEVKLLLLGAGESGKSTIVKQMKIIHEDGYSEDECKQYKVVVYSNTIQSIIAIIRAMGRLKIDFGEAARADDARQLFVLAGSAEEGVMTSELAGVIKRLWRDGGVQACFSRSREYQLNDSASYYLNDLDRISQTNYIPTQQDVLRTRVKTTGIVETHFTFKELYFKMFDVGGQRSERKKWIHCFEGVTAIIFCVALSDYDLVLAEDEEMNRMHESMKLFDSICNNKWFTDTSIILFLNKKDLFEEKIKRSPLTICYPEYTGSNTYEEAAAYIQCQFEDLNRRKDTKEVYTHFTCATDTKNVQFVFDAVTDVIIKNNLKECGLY
Sa growth inh – S. aureus growth inhibition at 42 and 30 °C, primary screen, LtaS inhibitor project, RN4220, two temperatures. OD600, 20 h, 42 °C; hits give low values. relative growth, % (test concentration not listed). 0.53% of 170,000 active;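 active means growth at 42 °C up to 50% and 20 or more points under that at 30 °C, or under 10% at both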;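 further: 300 nL library stock went into each well; scaled to the means of positive and negative controls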
HCMV UL50-53 inh – inhibitors of HCMV UL50-UL53 interaction, biochemical, HTRF. HCMV UL50-UL53 nuclear egress complex (human cytomegalovirus). normalized percent inhibition. inhibition, % (no concentration beside the values). 0.15% of 190,000 active;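 active means both replicates at 50% or more, plus weaker picks with an unusually low signal ratio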;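 further: stock transfer was 100 nL into about 20 µL; 0% = negative control wells and 100% = wells with untagged competitor protein; inactives centre near -12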
Sa growth inh second temp – also measured in Sa growth inh; calls as there; relative growth, %; measured here: growth at 30 °C;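 optical density after 20 h as mean of two plates; 100% = untreated growth and lower means inhibition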
Numbers without * were called inactive; x = not tested or not shown; & = joins results of further samples.

SMILES	GIV-Gai inh	Sa growth inh	Sa growth inh second temp	HCMV UL50-53 inh
O=c1oc2ccc(Br)cc2cc1-c1csc(-c2ccccc2)n1	102	99	89	x
O=C(OCC(=O)N1N=C(c2ccc(Cl)cc2)CC1c1ccco1)c1cc(S(=O)(=O)N2CCOCC2)ccc1Cl (stereo unspecified)	x	114	83	-19
N/C(=N\S(=O)(=O)c1cc(C(F)(F)F)cc(C(F)(F)F)c1)N1CCSCC1	103	82	95	-11
Cc1ccc(-c2c3c(=O)n(C)c(=O)n(C)c3c3c(-c4cccc(C)c4)nc4ccccc4n23)cc1	100	105	92	-18
COc1cccc2sc(N(C)c3ccccc3)nc12	101	108	88	x
COc1cc(C(=O)Nc2cc3c(cc2N2CCCCC2)n(C)c(=O)n3C)cc(OC)c1OC	97	98	71	-6
CC(OC(=O)CCc1ccc(S(=O)(=O)N2CCOCC2)cc1)C(=O)Nc1ccc(Cl)cn1 (stereo unspecified)	x	72	85	-34
COC(=O)c1c(C)nn(-c2ccc(C)cc2)c1N	103	x	x	-11
CC(C)(C)c1nnc(SCC(=O)c2ccc(F)c(F)c2)n1N	x	86	97	-18
CC(C)N1C/C(=C/c2ccc(Br)o2)C(=O)/C(=C/c2ccc(Br)o2)C1	164	79	63	-16
COc1ccc(O)c(C(=O)c2cnc3c(c2)c(C)nn3CCO)c1	x	105	101	11
Cc1ccccc1Cc1c(C)nc2c(C(=O)NCc3ccco3)cnn2c1C	100	91	87	-27
CN1CCCNC1c1ccc(-c2ccc(Br)cc2)o1 (stereo unspecified)	106	96	85	x
CCc1ccc(NCc2cc3cc4c(cc3n(CC(=O)Nc3cccc(OC)c3)c2=O)OCO4)cc1	98	85	86	x
Cc1cccc(Cc2cnc(NC(=O)Cn3cnc4ccccc4c3=O)s2)c1	x	66	96	-34
COc1cccc(CNCc2cccn2-c2nnc(N3CCCC3)s2)c1	108	98	66	-15
CCOc1ccc(CN(C)C(C)c2nnc(-c3ccc(C)cc3)o2)cc1 (stereo unspecified)	x	80	80	-15
COc1ccc(-c2cccc(NS(=O)(=O)c3cccs3)c2)nn1	102	102	93	x
COc1cc(OC)c(NC(=O)NCCn2c(C(F)(F)F)nc3cccnc32)cc1Cl	105	x	x	2
Cc1ccc(-c2nc3ncccc3o2)cc1NC(=O)c1ccc(-c2ccc(Cl)cc2)o1	103	112	89	-13
Cc1n[nH]c(C)c1S(=O)(=O)NCc1ccccc1	103	94	90	-3
Cc1cc2[nH]c(=O)c(=O)[nH]c2cc1S(N)(=O)=O	99	x	x	-11
O=C(O)c1cccc(-n2nnnc2SCc2ccccn2)c1	103	112	89	-13
CCCOc1ccc(Nc2nc(SC)ncc2C(=O)OCC)cc1	105	98	76	-3
Cc1nc(-c2cc(S(=O)(=O)N3CCCC(C(=O)NCCc4nc5ccccc5[nH]4)C3)c(C)s2)no1 (stereo unspecified)	105	x	x	-10
COc1ccc(S(=O)(=O)N(CCC#N)C2CCCc3ccccc32)cc1OC (stereo unspecified)	102	122	83	5
CCn1ncc(CN2CCN(C(=S)Nc3ccc(Br)cc3Cl)CC2)c1C	111	111	97	4
CN(/N=C1/CCN(C2CCCCC2)C1=O)c1ccc(Cl)cc1	x	82	97	-28
COc1ccc(-c2cc(-c3ccccc3)nc(SCC(=O)CC(=O)OC(C)C)c2C#N)cc1	104	104	89	-31
COc1ccc(N2CC(NC(=O)COc3cccc(C)c3)CC2=O)cc1OC (stereo unspecified)	102	108	90	x
COc1ccc(-c2nc3c4ccccc4n(CC(=O)Nc4ccc(C(C)=O)cc4)c(=O)n3n2)cc1	96	108	96	x
CCCn1ccc2c(OCC(=O)Nc3ccccc3C(=O)OCC)cccc2c1=O	101	111	88	x
Cc1cc(C#N)c(C)n1-c1ccc(Br)cc1	x	98	91	-5
CC1S/C(=N\C(=O)Nc2ccc(Cl)cc2)NC1=O (stereo unspecified)	103	97	83	-12
CCC(C)NC(=O)C1CCCN(c2ccc(-c3ccc(F)cc3)nn2)C1 (stereo unspecified)	108	x	x	-41
COC(=O)c1c(C)oc(C)c1S(=O)(=O)N(C)C1CCCCC1	96	127	102	-1
Cn1c(CCc2nc3ccccc3[nH]2)nnc1SCC#N	105	120	101	-2
O=C(CCN1CCN(c2nccc(C(F)(F)F)n2)CC1)N1CCCN(c2ccc(C(F)(F)F)cn2)CC1	104	101	92	-22
CCC(Sc1nc2n[nH]c(C)c2c(=N)n1-c1ccccc1Cl)C(=O)N(CC)CC (stereo unspecified)	104	96	99	x
Cc1cc(C)cc(NC(=O)CCCn2nc(C)c3c(C)n(-c4ccccc4)nc3c2=O)c1	98	95	91	x
Cc1nn(C2CCS(=O)(=O)C2)c(Cl)c1/C=C/C(=O)OCCCn1c(=O)[nH]c2ccccc21 (stereo unspecified)	x	91	93	-1
O=C(O)CNC(=O)OCc1ccccc1	100	104	113	3
CC(=O)c1ccc(NC(=O)C2CCN(S(=O)(=O)c3ccc4[nH]c5c(c4c3)CCCCC5)CC2)cc1	104	97	86	x
Cc1cc(C)nc(N(C#N)CC(=O)N2CCC(C(N)=O)CC2)n1	103	93	93	-22
Cc1nc(-c2cc(NC(=O)Cc3ccccc3Br)c(C)s2)no1	109	x	x	-8
CCN1c2cc(C)ccc2-n2cccc2C12CCN(S(=O)(=O)Cc1ccccc1)CC2	101	x	x	-27
O=C(NCc1csc(-c2cccs2)n1)c1ccno1	111	92	91	-65
NCCCSC1=NCCCN1	101	113	93	-10
O=C(COc1cccc(Cl)c1)Oc1ccc2c3c(c(=O)oc2c1)CCC3	105	88	95	0
CC(=O)Nc1c(-c2ccc(F)cc2)c(C)nn1-c1ccc(C(=O)N2CCN(c3ccccn3)CC2)cc1	112	x	x	-10
Continued:
SMILES	GIV-Gai inh	Sa growth inh	Sa growth inh second temp	HCMV UL50-53 inh
COc1cc(C(=O)Nc2sc3c(c2C#N)CCCC3)c(Br)c(OC)c1OC	107	101	88	-62
CC1CCCC(NC(=O)CN2CCCN(Cc3ccc(F)cc3Cl)C2=O)C1C (stereo unspecified)	106	106	109	1
C=CCn1c(-c2c(Nc3ccc(Cl)cc3)sc(C(=O)c3ccccc3)c2N)nnc1N1CCOCC1	x	83	93	-42
CCOC(=O)c1c(C)n(-c2ccccc2C)c2ccc(OC)cc12	102	x	x	-12
CCN(C(=O)c1cnn(-c2ccccc2)n1)c1nc2c(C)cccc2s1	x	102	92	16
Cc1ccc(N2CCN(C(=O)c3cc4ccccn4n3)CC2)c(C)c1	102	x	x	-31
CCN(C(=O)c1cccc(OC)c1)c1cccc2ccccc12	92	99	83	-17
CSc1ccc(CNC(=O)CCn2c(=O)c3cccn3c3ccc(F)cc32)cc1	97	98	66	0
O=C(O)CCn1cc(I)c(=O)[nH]c1=O	102	96	91	x
Cc1ccc(CNC(=O)c2ccc(-n3c(C)cc4c3CCCC4)cc2)cc1	102	103	96	x

Brought forward from above: five entries; new compounds follow.
SMILES	GIV-Gai inh	Sa growth inh	Sa growth inh second temp	HCMV UL50-53 inh
Cc1ccc(N2CCN(C(=O)c3cc4ccccn4n3)CC2)c(C)c1	102	x	x	-31
CCN(C(=O)c1cccc(OC)c1)c1cccc2ccccc12	92	99	83	-17
CSc1ccc(CNC(=O)CCn2c(=O)c3cccn3c3ccc(F)cc32)cc1	97	98	66	0
O=C(O)CCn1cc(I)c(=O)[nH]c1=O	102	96	91	x
Cc1ccc(CNC(=O)c2ccc(-n3c(C)cc4c3CCCC4)cc2)cc1	102	103	96	x
O=C(CCn1nc(-c2ccc(Cl)cc2)ccc1=O)NCCN1CCN(c2cccc(Cl)c2)CC1	105	59	2	-48
Cc1ccccc1OCC(O)Cn1c2ccccc2c2ccccc21 (stereo unspecified)	99	66	52	x
CCN(CC)CCCNC(=O)Cn1c(-c2cccs2)cc2cc(Cl)ccc21	105	126	84	x
O=C1c2ccccc2C(=O)N1CCN1c2cccc3cccc(c23)S1(=O)=O	x	70	88	-44
CC(C)NC(=O)C(N)Cc1c[nH]c2ccccc12 (stereo unspecified)	99	108	86	0
COc1cccc(/C=N/NC(=O)CNc2ccccc2)c1	98	94	84	-39
CCOC(=O)c1ccc(NC(=O)CCc2c(C)nc3c(c(C)nn3C)c2C)cc1	105	96	88	-12
O=C(OCC(=O)N1CCCCC1)c1ccccc1C(F)(F)F	x	123	91	-11
O=c1oc2ccc3ccccc3c2cc1-c1nnc(Nc2ccc(F)cc2)s1	147	99	90	-30
O=C(NCC1CCCO1)c1ccc(Cn2c(=O)c3cccn3c3cccnc32)cc1 (stereo unspecified)	104	x	x	16
CCc1nc(Nc2ccc(F)c(Cl)c2)c2c3c(sc2n1)CCCC3	106	106	85	-18
Clc1ccc(-c2ccc(CNCC3CCCO3)o2)cc1 (stereo unspecified)	103	x	x	-19
Cc1cc(S(=O)(=O)Nc2ccc3c(c2)n(C)c(=O)n3C)ccc1F	97	x	x	-13
O=c1c2ccccc2c(-c2ccccc2)nn1Cc1ccccc1	104	90	82	x
CCCCNC(=O)CSc1nnc(-c2cc3ccccc3n2C)o1	100	x	x	-5
Cc1cc(C(=O)O)c(CN2CCCC2)o1	104	98	86	-2
N#CCCN(CCN1CCCC1)S(=O)(=O)c1cccc2nsnc12	101	x	x	-70
O=c1[nH]c2c(=O)[nH]c(=S)[nH]c2nc1/C=C(\O)c1ccccc1	277	84	76	-114
CCOC(=O)c1cc2n(n1)CC(C)(C(=O)NC1CCCC1)N(c1ccc(OCC)cc1)C2=O (stereo unspecified)	95	x	x	4
CCCCNC(=O)c1ccc(Nc2ccc(-c3cccc(C)c3)nn2)cc1	95	x	x	-2
O=S(=O)(Nc1nc2ccccc2nc1OCC(F)(F)F)c1cccs1	x	28	22	-30
Cc1cccc(C(=O)Nc2ccc(N3CCN(c4ccc(F)cc4)CC3)c(C(=O)O)c2)c1	100	135	85	x
CCc1ccc(C2CC(=O)NC3=C2C(=O)CCC3)cc1 (stereo unspecified)	99	96	85	x
O=c1oc(C2CC2)nc2ccccc12	99	100	87	-34
CCC(C(=O)N1CCc2ccccc2C1)n1nc(C)n2c(cc3sccc32)c1=O (stereo unspecified)	104	107	85	-1
Cc1ccc(NC(=O)COC(=O)CSC2CCS(=O)(=O)C2)cc1C (stereo unspecified)	x	80	97	-24
CC(=O)n1nc(-c2ccccc2C)nc1N	106	x	x	-26
O=C(Cn1nc(Cc2ccncc2)c2ccccc2c1=O)N1CCCc2ccccc21	101	82	62	x
Cc1nc(SCc2c(F)c(F)c(F)c(F)c2F)c2ccccc2n1	x	87	88	-41
O=C(CCN(CCCN1CCOCC1)C(=O)c1cccc(F)c1)N1CCNCC1	96	x	x	4
CCOC(=O)c1c(-c2ccccc2)csc1NC(=O)c1cc(=O)c2ccc(C)cc2o1	105	107	94	-13
CCOC(=O)CSc1nsc(SCC(=O)OCC)c1C#N	103	96	90	-17
CSc1ccc(-c2cc(=O)c3ccccc3o2)cc1	119	94	68	x
CCn1cc(CNC(=S)NC2CCCC2)cn1	103	94	95	-2
COc1ccc(C(=O)N/N=C2\CCc3ccccc32)cc1OC	x	96	98	-19
CC1CC(C)CN(C(=O)c2cc(-c3ccccn3)nc3ccc(S(=O)(=O)N4CCOCC4)cc23)C1 (stereo unspecified)	107	102	87	x
COc1cccc(-c2cc(C(=O)Nc3ccc(Br)c(C)c3)[nH]n2)c1	102	103	97	x
O=C(O)CNC(=O)c1ccc(CO)cc1	x	110	77	7
CCN1C(=O)COc2ccccc2C1=O	111	x	x	12
COc1ccc2c(c1)CCc1c-2n[nH]c1C(=O)N1CCN(c2c(C)n(C)c(=O)n(C)c2=O)CC1	110	x	x	-12

Some entries already given, reduced to Sa growth inh:
canonical_smiles | Sa growth inh
COc1ccc(C(=O)N/N=C2\CCc3ccccc32)cc1OC | 96
CC1CC(C)CN(C(=O)c2cc(-c3ccccn3)nc3ccc(S(=O)(=O)N4CCOCC4)cc23)C1 (stereo unspecified) | 102
COc1cccc(-c2cc(C(=O)Nc3ccc(Br)c(C)c3)[nH]n2)c1 | 103

(more compounds)
SMILES	GIV-Gai inh	Sa growth inh	Sa growth inh second temp	HCMV UL50-53 inh
Cc1ccc(C)c(NC(=O)C(OC(=O)c2cccnc2Cl)c2ccccc2)c1 (stereo unspecified)	x	94	101	13
O=C(Cc1cn(Cc2cccc(Cl)c2)c2ccccc12)Nc1nc2ccccc2s1	103&102	121	100	-25
Cc1c(CNC(=O)c2cnn3c(C(F)(F)F)cc(-c4ccc(Br)cc4)nc23)cnn1C	101	x	x	-5
Cc1cc(NC(=O)C2CC3CCCN3C23C(=O)N(C)c2ccccc23)ccc1Br (stereo unspecified)	102	99	87	-8
Cc1cccc(Nc2nc(NC(C)C)nc(Oc3ccc(=O)n(C)n3)n2)c1	98	97	73	-6

Complete entries, looked up by structure.
CC(=O)Nc1c(-c2ccc(F)cc2)c(C)nn1-c1ccc(C(=O)N2CCN(c3ccccn3)CC2)cc1 is listed with GIV-Gai inh = 112; Sa growth inh = x; Sa growth inh second temp = x; HCMV UL50-53 inh = -10
COc1cccc(CNCc2cccn2-c2nnc(N3CCCC3)s2)c1 is listed with GIV-Gai inh = 108; Sa growth inh = 98; Sa growth inh second temp = 66; HCMV UL50-53 inh = -15

Assay outcomes as filed in PubChem BioAssay.
